Screens (PubChem BioAssay)
T cruzi repl = blocks replication of Trypanosoma cruzi; T. cruzi beta-gal in NIH3T3, luminescence, 90 h; inhibition, % (no concentration beside the values); 300,000 tested, 1.4% active; AID 1885;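 active = mean inhibition across valid replicates above about 55%, limit read from the data; inconclusive = mean below that limit but half or more replicates reach it; inactive = mean below it, under half of replicates reach it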;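 also: signal also drops with host cell toxicity which is not excluded here; 0% = plate median of DMSO wells and 100% = zero luminescence signal; higher percent means less beta-gal luminescence so fewer parasites; stock transfer was 50 nL into about 50 µL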
RanGTP-Imp inh = inhibitors of RanGTP-importin-beta interaction, primary screen, biochemical, FRET, CFP-Ran, YFP-importin-beta, homogeneous; 300,000 tested, 1.1% active; cell-free CFP-Ran/YFP-importin-beta FRET ratio; inhibition, % (concentration not given with the values);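 active = most replicates above 15%; inconclusive = exactly half above 15%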;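 also: 0% = DMSO wells and 100% = Ran loaded with GDP instead of GTP; wells of about 40 µL received 100 nL stock; the first replicate is given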
MLL AF4-AF9 inh = MLL-AF4/AF9 protein interaction inhibition; P42568; AlphaScreen, biotin-AF4 peptide binding to FLAG-AF9; inhibition, % at 10 µM; 350,000 tested, 0.47% active;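 active = every replicate reaching a set inhibition limit, whatever the replicate mean, cut at about 25% in these data; inconclusive = mean inhibition reaches that limit but some replicates miss it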;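 also: 0% = plate neutral control median and 100% = total signal loss; the record names both 10 and 1 µM as test concentration; the first replicate is given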
Target sequence (P42568 whole entry, looked up): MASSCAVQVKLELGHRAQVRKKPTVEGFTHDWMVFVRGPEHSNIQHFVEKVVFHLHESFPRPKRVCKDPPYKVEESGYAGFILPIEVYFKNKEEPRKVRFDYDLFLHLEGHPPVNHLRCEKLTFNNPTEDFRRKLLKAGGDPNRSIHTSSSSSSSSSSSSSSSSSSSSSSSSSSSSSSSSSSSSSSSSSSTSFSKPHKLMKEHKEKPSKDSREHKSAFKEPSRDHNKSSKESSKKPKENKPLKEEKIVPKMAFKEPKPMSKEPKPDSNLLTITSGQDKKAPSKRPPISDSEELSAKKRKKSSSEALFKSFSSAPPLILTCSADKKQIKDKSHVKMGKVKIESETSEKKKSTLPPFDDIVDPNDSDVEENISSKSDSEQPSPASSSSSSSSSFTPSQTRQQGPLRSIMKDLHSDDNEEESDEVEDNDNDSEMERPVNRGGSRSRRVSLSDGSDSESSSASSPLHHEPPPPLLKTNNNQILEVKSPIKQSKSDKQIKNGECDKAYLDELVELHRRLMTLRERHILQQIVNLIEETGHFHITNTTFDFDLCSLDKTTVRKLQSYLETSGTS
A1 inh = inhibitors of the anti-apoptotic protein A1, read as caspase activation | MEF A1-2A-BIM cells, Caspase-Glo 3/7 luminescence, 3 h; percent of clofoctol response, vehicle zero | caspase activation, % (concentration not given with the values) | 330,000 tested, 0.066% active | AID 2462;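 active = over half of replicate activation scores above 10%, or exactly half above 10 with the replicate mean above 10; inconclusive = replicate mean below 10 yet half the replicates above 10; inactive = over half of replicates below 10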;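 also: wells of about 30 µL received 50 nL stock; many hits fall short of the cut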
rRNA inh HTS = inhibits bacterial ribosomal RNA function over humanized ribosomes; E. coli WT GFP vs humanized-ribosome RFP mutants, fluorescence, 24 h; active compounds read low; DMSO median 0, no signal -100; GFP signal change (wild-type ribosome), % (test concentration not listed); 350,000 tested, 1.6% active;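 active = significant combined selectivity score with lowered wild-type GFP, culture density cut under 30%, mutant RFP and density less affected; inactive = any of these conditions unmet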; also: one replicate is shown; some compounds called inactive have numbers as strong as hits
Vif A3G = inhibitors of Vif binding to APOBEC3G peptide, primary screen, biochemical, TR-FRET, GST-Vif 1-94, biotin-A3G peptide, dose response retest (AID 1117319). TR-FRET GST-Vif / biotin-A3G peptide binding; higher % means a stronger effect; test concentration not given here; strong numbers were not always called active. one-dose inhibition, %; IC50 in µM for titrated hits. 260,000 tested, 0.57% active;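 active = above the screen mean plus three standard deviations and confirmed in dose response; inconclusive = results disagree or hit not tested in dose response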;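 also: Vif residues 1-94 fused to GST binding biotinylated APOBEC3G peptide 110-148; 0% = full assay without inhibitor and 100% = GST in place of GST-Vif; retest series ran down from 100 µM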
Beta cell apopt = beta cell apoptosis inhibition | INS-1E cytokine-induced death, ATP luminescence, 48 h; percent of positive-control rescue, neutral wells zero | protection from apoptosis, % (test concentration not listed) | AID 435005 | 300,000 tested, 0.8% active;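 active = all replicates at 75% or more, or half of them and the mean; inconclusive = half reach 75% but not the mean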;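 also: 0% = cytokine-treated negative control wells and 100% = positive control rescue; higher means more ATP so stronger rescue from cytokine killing; wells of about 40 µL received 100 nL stock; the first replicate is given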
Calb FLC = affects C. albicans growth with fluconazole; 300,000 tested, 0.57% active; AID 1979; C. albicans CaCi-2 (fluconazole-resistant clinical isolate) + fluconazole, Alamar Blue growth, 48 h; growth inhibition, % (test concentration not listed);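 active = most replicates above 75%; inconclusive = exactly half above 75%; inactive = most below 75%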;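 also: all wells also contain fluconazole at 8 µg/ml as a sub-toxic cotreatment; 0% = median of DMSO wells and 100% = median of geldanamycin control wells; wells of about 8 µL received 7.5 nL stock; the first replicate is given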
rRNA inh HTS OD600 = further read-out of rRNA inh HTS, marked with its call; OD600 change, %; measured here: OD600 growth;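 optical density of the mix in the first replicate; 0 = DMSO median and -100 = no signal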
rRNA inh HTS RFP = recorded beside rRNA inh HTS, whose call it bears; RFP signal change, %; measured here: RFP humanized mutant strains;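 first replicate; 0 = DMSO median and -100 = no signal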
An asterisk follows results filed as active; ? = inconclusive; . = no result given.

SMILES	T cruzi repl	RanGTP-Imp inh	MLL AF4-AF9 inh	A1 inh	rRNA inh HTS	rRNA inh HTS OD600	rRNA inh HTS RFP	Vif A3G	Beta cell apopt	Calb FLC
O=C(N/N=C1\CCc2ccccc21)c1ccncc1	-11.4	-20.0	2.9	0.4	12.8	17.8	-1.4	2.1%	-10.9	-9.8
COC(=O)[C@@H](NC(=O)Nc1ccc(OC)cc1)C(C)C	-7.6	-4.3	.	0.9	.	.	.	13.7%	-2.6	6.0
CN(C)S(=O)(=O)c1ccc(C(=O)Nc2nnc(SCc3cccc(F)c3)s2)cc1	-16.5	0.5	.	-0.2	.	.	.	?	-2.9	-9.7
COc1ccc(CC(=O)Nc2c3c(nn2-c2cccc(Cl)c2)CS(=O)(=O)C3)cc1	-0.9	-1.1	.	-0.5	.	.	.	6.0%	.	19.2
O=C(Nc1ccccc1F)c1ccc(CSc2ncccn2)cc1	0.6	1.5	-2.0	-6.4	-13.6	-15.1	-6.9	2.0%	-0.9	-11.0
COC(=O)[C@H](C)NC(=O)NCc1ccc(F)cc1	-4.4	-1.7	2.5	-0.4	12.9	0.7	-8.7	25.7%	-2.2	0.3
Nc1cccc(-c2cc3ccccc3oc2=O)c1	-26.2	4.3	2.5	-3.0	-0.5	-8.1	-3.3	-4.3%	-0.4	18.6
Cc1cc(C(=O)Nc2ccc(S(=O)(=O)N3CCOCC3)cc2)c(C)o1	11.6	4.9	-3.0	-0.9	-8.0	-2.5	0.2	-6.8%	2.2	6.0
CCOc1ccc(C(=O)CCC(=O)NNC(=O)c2ccccc2O)cc1	-9.3	0.7	-0.3	0.4	7.8	9.8	2.5	1.5%	0.5	.
COc1ccc(O)c(-c2[nH]ncc2C(=O)c2cccc(C)c2)c1	-8.2	-8.5	0.6	2.3	-13.1	-3.5	-1.8	-2.9%	-16.7	8.3
COCCn1c(NCc2ccc(C)cc2)nc2c1c(=O)[nH]c(=O)n2C	3.4	1.3	.	0.8	.	.	.	30.4%	-7.0	-27.6
COc1ccccc1C(=O)Nc1ccnn1C1CCN(Cc2csc(C(C)=O)c2)CC1	5.3	4.2	-0.2	0.6	1.4	12.6	-1.8	-1.9%	2.0	-4.8
Nc1ccccc1SCC(=O)Nc1cccc2ccccc12	8.9	-2.3	14.1	?	-0.8	3.7	-0.7	2.7%	-1.8	-5.3
COc1cccc(NS(=O)(=O)c2c(C)n(C)c(=O)n(C)c2=O)c1	-6.3	-2.8	-2.1	-0.8	4.8	5.4	-1.9	2.4%	-3.2	-1.9
Cc1c(C(=O)NCc2ccccn2)sc2nc(-c3ccc(F)cc3)cn12	-10.5	5.2	.	-0.1	.	.	.	0.7%	0.3	?
COc1ccc(S(=O)(=O)N2CCCC(C(=O)NCc3ccco3)C2)cc1Cl (stereo unspecified)	-15.9	1.4	.	-0.5	.	.	.	-2.2%	.	21.7
O=C(C[n+]1cc(-c2ccccc2)n2c1CCC2)c1cccs1	-14.4	-0.7	0.4	-0.9	14.4	9.5	3.0	.	-0.8	-0.2
COc1cccc(OC)c1OCC(=O)Nc1ccc(S(=O)(=O)N2CCCC2)cc1	.	.	-2.4	-1.7	-33.7*	-26.5*	-2.2*	.	-0.5	.
CCC(=O)N(c1nnc(SCC(=O)NN2C(=O)NC3(CCCCC3)C2=O)s1)C1CC1	.	.	0.0	0.6	4.3	1.5	-2.8	3.9%	-2.5	.
Cc1cc(C)cc(OCC(=O)NCc2cc(C)nc3ccccc23)c1	-7.4	1.7	-2.7	-0.6	-16.2	-13.6	-3.7	.	6.6	-20.9
COc1ccccc1NC(=O)CCC(=O)N1CC(C)Oc2ccc(C)cc21 (stereo unspecified)	5.1	-2.9	-5.3	-1.2	-11.4	-9.8	-0.6	.	-2.6	-23.7
CCc1ccccc1NC(=O)CSc1nnc(CNC(=O)c2ccco2)n1C	-12.8	-0.1	0.8	-1.0	3.8	7.6	-3.3	.	.	-4.1
CNC(=O)C(=O)NCC1OCCN1S(=O)(=O)c1ccc([N+](=O)[O-])cc1 (stereo unspecified)	20.7	?	.	0.6	.	.	.	9.7%	.	-11.6
Cc1ccc(-c2n[nH]c(=S)n2C)cc1Cl	-5.7	-2.1	-5.1	-0.6	-6.9	-2.0	-2.0	1.9%	-9.4	1.8
O=C1CC(NNc2ccccc2)C(=O)N1c1cccc(Cl)c1 (stereo unspecified)	-6.8	1.3	.	0.4	.	.	.	9.1%	-4.7	-31.2

Two records picked at random from the list so far, as already listed:
SMILES	T cruzi repl	RanGTP-Imp inh	MLL AF4-AF9 inh	A1 inh	rRNA inh HTS	rRNA inh HTS OD600	rRNA inh HTS RFP	Vif A3G	Beta cell apopt	Calb FLC
COc1cccc(OC)c1OCC(=O)Nc1ccc(S(=O)(=O)N2CCCC2)cc1	.	.	-2.4	-1.7	-33.7*	-26.5*	-2.2*	.	-0.5	.
COC(=O)[C@@H](NC(=O)Nc1ccc(OC)cc1)C(C)C	-7.6	-4.3	.	0.9	.	.	.	13.7%	-2.6	6.0

Additional entries:
SMILES	T cruzi repl	RanGTP-Imp inh	MLL AF4-AF9 inh	A1 inh	rRNA inh HTS	rRNA inh HTS OD600	rRNA inh HTS RFP	Vif A3G	Beta cell apopt	Calb FLC
CC1Cc2ccccc2N1C(=O)COC(=O)c1cc(Br)ccc1O (stereo unspecified)	-8.6	0.5	-0.8	-0.2	9.6	5.1	-0.1	-28.7%	5.2	3.2
Cc1ccc(S(=O)(=O)CCc2nnc(NC(=O)C3CCCO3)s2)cc1 (stereo unspecified)	-15.0	33.5	.	-0.7	.	.	.	16.0%	-6.6	-17.7
Cc1ccc(-n2c(-c3ccccc3)nnc2-c2cccs2)cc1	16.2	2.0	.	1.0	.	.	.	-10.0%	.	-14.1
Cc1noc(C(=O)NCc2ccco2)c1Cl	5.2	-0.1	-1.0	0.0	9.5	7.0	1.6	32.3%	-3.3	1.7
O=C(CSc1nc2ccccc2c(=O)[nH]1)Nc1nc(-c2ccc(Br)cc2)cs1	-19.7	0.8	0.1	-0.1	0.4	-0.6	1.3	2.4%	7.3	22.7
CN(Cc1ccccc1F)c1ncnc2sccc12	-9.6	8.6	-4.3	-0.4	-20.6	-21.1	-3.9	.	-6.4	17.2
COc1ccc(CCN(C(=O)c2snc(C(N)=O)c2N)C(C(=O)NCC2CCCO2)c2ccc(F)cc2)cc1OC (stereo unspecified)	13.0	-2.5	2.9	.	-2.3	-8.0	0.2	.	.	3.5
COc1ccc(CNc2oc(COc3ccc(Cl)cc3)nc2C#N)cc1	66.3*	-0.8	.	-0.2	.	.	.	-3.1%	-4.8	-2.8
CC(C)c1cc(C(=O)NNC(=S)NCc2ccco2)c(O)c(C(C)C)c1	-10.1	8.7	.	0.7	.	.	.	.	8.0	37.4
COc1ccc(C2CCCN2C(=S)Nc2ccc(C)c(C)c2)cc1OC (stereo unspecified)	22.0	-0.7	-1.7	0.7	-14.8	-15.5	-5.6	2.1%	3.1	-1.6
Cc1nc(N2CCOCC2)nc(N2CCCCC2)c1[N+](=O)[O-]	-8.0	3.6	.	1.2	.	.	.	.	-12.2	-13.5
O=C(c1ccc2c(=O)n(Cc3ccco3)c(=S)[nH]c2c1)N1CCN(Cc2ccccc2)CC1	-14.2	5.4	.	-0.2	.	.	.	24.3%	-6.3	?
CNC(=S)Nc1cc(OC)ccc1OC	-6.9	?	3.8	-0.9	15.3	5.4	0.8	21.6%	-6.2	-4.3
CCOC(=O)Cc1cc(-c2ccc(OC)cc2)nc2ccc3ccccc3c12	44.0	0.8	.	0.0	.	.	.	.	6.6	11.2
C/C(=N\NC(=S)NC(C)C)c1ccc(Cl)c([N+](=O)[O-])c1	0.9	-1.0	-9.1	0.3	0.6	-5.1	2.5	.	-1.8	9.4
CCN(CC)CCn1c(NS(=O)(=O)c2ccc(C)cc2)nc2ccccc21	.	.	1.6	0.3	-0.7	2.7	-0.3	19.2%	-2.2	.
N#Cc1c(NCCCO)nc(-c2ccco2)c2c1CCCC2	11.7	7.7	.	-0.1	.	.	.	?	0.9	15.8
O=C(COC(=O)Cc1ccsc1)NCC12CC3CC(CC(C3)C1)C2	-7.6	0.0	.	0.4	.	.	.	0.4%	-6.1	-20.4
C=CCn1c2ccccc2c2nnc(SC(CC)C(=O)Nc3nc(C)c(C(=O)OCC)s3)nc21 (stereo unspecified)	24.7	0.9	.	-0.4	.	.	.	6.5%	14.6	3.6
CCOC(=O)c1sc(Nc2nc(C)cc(OC)n2)nc1C	23.3	-0.9	-1.5	-1.6	5.8	-0.2	-2.3	.	13.7	22.4
CC(=O)N1c2ccc(S(=O)(=O)N3CCCC(C(=O)NCc4ccccc4Cl)C3)cc2CC1C (stereo unspecified)	1.8	?	-0.8	1.0	-13.1	-14.8	-1.5	-6.9%	2.2	-3.5
COc1cc(OC)c2cc(C(=O)N/N=C/c3cccc(OC)c3O)[nH]c2c1	21.7	0.1	-1.6	-0.3	-9.5	6.7	-0.8	7.0%	97.1*	1.9
CCOC(=O)c1c(C=O)c2sc(C)cc2n1C	-14.6	?	?	2.5	1.6	-4.2	-3.8	-11.2%	9.1	0.6
COc1ccc2cc(C(=O)C3CCCN(C(=O)c4cnn(C(C)C)c4)C3)ccc2c1 (stereo unspecified)	-0.3	-0.3	-0.8	-1.1	-8.3	-27.0	4.0	.	-9.1	15.9
Clc1ccc(Sc2oc(/C=N/n3cnnc3)cc2Br)cc1	5.5	.	.	-0.3	.	.	.	72.1%	-11.7	19.6
C#CCCOC(=O)N1C2=NC(C(=O)OC)=C(C(=O)OC)[C@@H]3N(Cc4ccccc4)c4ccccc4[C@]23C[C@H]1C(=O)OC	7.6	?	.	1.1	.	.	.	-3.8%	1.3	18.4
O=C(Nc1nccs1)c1ccc(-c2ccccc2[N+](=O)[O-])o1	11.0	6.8	5.8	2.1	-25.5	-12.4	-4.0	-3.8%	-4.4	3.4

Profiles, quoted from the list.
`CCOC(=O)Cc1cc(-c2ccc(OC)cc2)nc2ccc3ccccc3c12` across the screens: T cruzi repl = 44.0; RanGTP-Imp inh = 0.8; MLL AF4-AF9 inh = .; A1 inh = 0.0; rRNA inh HTS = .; rRNA inh HTS OD600 = .; rRNA inh HTS RFP = .; Vif A3G = .; Beta cell apopt = 6.6; Calb FLC = 11.2
`COc1ccc(CCN(C(=O)c2snc(C(N)=O)c2N)C(C(=O)NCC2CCCO2)c2ccc(F)cc2)cc1OC` (stereo unspecified) across the screens: T cruzi repl = 13.0; RanGTP-Imp inh = -2.5; MLL AF4-AF9 inh = 2.9; A1 inh = .; rRNA inh HTS = -2.3; rRNA inh HTS OD600 = -8.0; rRNA inh HTS RFP = 0.2; Vif A3G = .; Beta cell apopt = .; Calb FLC = 3.5

An excerpt; the hit share may differ from the screen's.
